Screening data: PubChem, Johns Hopkins Ion Channel Center
KCNQ2 inh = KCNQ2 channel blockers in CHO-K1 cells – cell-based, FluxOR thallium flux, B-score, primary screen (AID 2156); 1.1% of 310,000 active; O88943; B-score at 10 µM; 20 min; active compounds read low; only compounds with negative scores are shown here; some inactives read as strong as hits;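 active means fluorescence ratio B-score at most minus 3 library SDs, with starting brightness B-score within 2 library SDs, cut at about -5.5 in these data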
Target sequence (O88943 whole entry, looked up): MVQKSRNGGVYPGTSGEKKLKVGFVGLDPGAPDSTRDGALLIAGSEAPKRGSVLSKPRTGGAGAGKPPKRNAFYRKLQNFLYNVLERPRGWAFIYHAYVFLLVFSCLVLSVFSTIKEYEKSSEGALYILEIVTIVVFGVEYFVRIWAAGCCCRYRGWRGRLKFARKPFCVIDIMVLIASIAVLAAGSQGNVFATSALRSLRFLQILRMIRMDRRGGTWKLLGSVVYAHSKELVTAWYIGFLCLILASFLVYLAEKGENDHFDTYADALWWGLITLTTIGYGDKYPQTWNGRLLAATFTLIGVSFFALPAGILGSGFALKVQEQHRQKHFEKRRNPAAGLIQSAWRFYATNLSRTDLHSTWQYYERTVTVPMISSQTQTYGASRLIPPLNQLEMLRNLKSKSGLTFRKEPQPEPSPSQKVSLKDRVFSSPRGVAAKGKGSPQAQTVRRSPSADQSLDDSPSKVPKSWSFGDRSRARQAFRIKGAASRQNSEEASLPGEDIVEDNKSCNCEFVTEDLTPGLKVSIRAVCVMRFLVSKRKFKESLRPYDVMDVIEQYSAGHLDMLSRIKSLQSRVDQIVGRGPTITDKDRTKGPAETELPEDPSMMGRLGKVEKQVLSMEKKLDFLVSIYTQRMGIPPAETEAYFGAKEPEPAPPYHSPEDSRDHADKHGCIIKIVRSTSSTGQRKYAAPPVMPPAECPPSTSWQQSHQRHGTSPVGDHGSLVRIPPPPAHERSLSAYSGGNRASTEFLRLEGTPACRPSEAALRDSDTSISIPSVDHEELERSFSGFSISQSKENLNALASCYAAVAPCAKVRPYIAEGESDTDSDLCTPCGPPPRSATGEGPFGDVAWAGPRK
KCNQ2 inh baseline = recorded beside KCNQ2 inh, whose call it bears; B-score; measured here: initial fluorescence intensity artifact check;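 brightness before thallium and not channel activity; 0 = typical well and far values either way flag optical interference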
The depositor's hits bear a star; i = inactive.

Preview, 4 compounds:
KCNQ2 inh,KCNQ2 inh baseline,smiles
i,-0.67,CC(C)(C)OC(=O)NCc1ccc(NC(=O)c2nc[nH]c2C(=O)N[C@@H](Cc2ccccc2)C(=O)OCc2ccccc2)cc1
i,0.18,Cc1ccc(C(=O)COC(=O)c2ccncc2)cc1[N+](=O)[O-]
i,2.4,COc1nc(NCc2ccc(Cl)cc2)nc(OC)n1
i,-0.36,O=c1cc(CSc2ccccc2)nc(-c2ccncc2)[nH]1

The listing, previewed entries included:
KCNQ2 inh,KCNQ2 inh baseline,smiles
i,-0.67,CC(C)(C)OC(=O)NCc1ccc(NC(=O)c2nc[nH]c2C(=O)N[C@@H](Cc2ccccc2)C(=O)OCc2ccccc2)cc1
i,0.18,Cc1ccc(C(=O)COC(=O)c2ccncc2)cc1[N+](=O)[O-]
i,2.4,COc1nc(NCc2ccc(Cl)cc2)nc(OC)n1
i,-0.36,O=c1cc(CSc2ccccc2)nc(-c2ccncc2)[nH]1
i,4.2,N#CC1=C(N)SC(N)=C(C#N)C1Cc1ccccc1
i,0.65,CCOC(=O)C(=CNc1ccc2c(c1)CCN2C(C)=O)C(=O)OCC
i,-2,COc1ccc(CN2CN(S(=O)(=O)c3ccccc3)c3nc4ccccc4nc32)cc1
i,0.4,CCOc1ccc2c(c1)C(c1ccc(C)o1)=NNC(c1ccncc1)=N2
i,-0.04,CCOC(=O)Cn1c(S(=O)(=O)Cc2cccc(F)c2)nc(-c2ccccc2)c1-c1ccccc1
i,-1.1,CN(C)/N=C/C=C1\CC/C(=C\c2ccc(F)c(F)c2)C1=O
i,-0.3,CCc1nc(C)cn1S(=O)(=O)c1ccc(Cl)c(Cl)c1Cl
i,1,Cc1ccc(-c2ccc(/C=N/N3C(=O)C4C5C=CC(CC5)C4C3=O)o2)c([N+](=O)[O-])c1 (stereo unspecified)
i,-1,CCOCCCn1c(SCC(=O)Nc2ccccc2OC)nc2ccccc2c1=O
i,6.1,Cc1cccc(NC(=S)NC2CCCCC2)n1
i,1.9,Cc1ccccc1OC(C)C(=O)Nc1ccc(S(=O)(=O)Nc2nccs2)cc1 (stereo unspecified)
i,0.72,Cc1ccccc1NC(=O)C1CCCN1S(=O)(=O)c1cccc2cccnc12 (stereo unspecified)
i,-1.3,COc1ccc([N+](=O)[O-])cc1NC(=O)C1(c2ccc(OC)c(OC)c2)CCOCC1
i,-0.69,CCCOc1ccc(Oc2ccc(S(=O)(=O)N3CCN(C)CC3)cn2)cc1
-5.9*,-1.5*,CS(=O)(=O)c1nc(-c2cccs2)cc(C(F)(F)F)n1
i,1.6,Nc1nnc(SCc2ccccc2)n1-c1ccccc1
i,0.15,COc1ccc2cc3c(N)c(C(=O)N4CCCC4)sc3nc2c1
i,-1.3,COc1ccccc1NC(=O)c1ccc(CSc2ncccn2)cc1
i,-1.6,CC(=O)Nc1ccc(S(=O)(=O)N2CCN(CC(=O)N3CCOCC3)CC2)cc1
i,0.43,Cc1cccc(OCc2nc(C#N)c(NCCN(C)C)o2)c1
i,-0.67,Cc1ccc(SCC(=O)Nc2cc(C)on2)cc1
i,-2.3,CN(Cc1ccccc1)C(=O)c1[nH]cnc1C(=O)N[C@@H](CCCCNC(=O)OC(C)(C)C)C(=O)OC(C)(C)C
i,-2.4,FC(F)(F)COc1nc(OCC(F)(F)F)nc(N2CCN(c3ccccc3)CC2)n1
i,0.07,Cc1cc(C)cc(NC(=O)CCCN2C(=O)C(c3ccccc3)Oc3cccnc32)c1 (stereo unspecified)
i,1.4,COC(=O)c1ccc(/C=C/C(=O)c2cccc(OC)c2)cc1
i,-0.13,CN(C(=O)c1ccc2c(c1)SC1=NS(=O)(=O)CCN12)C(c1ccccc1)c1ccccc1

One compound at a time, as listed above. Screens in order: KCNQ2 inh, KCNQ2 inh baseline
Cc1ccc(-c2ccc(/C=N/N3C(=O)C4C5C=CC(CC5)C4C3=O)o2)c([N+](=O)[O-])c1 (stereo unspecified) is entered as i, 1
Cc1ccc(C(=O)COC(=O)c2ccncc2)cc1[N+](=O)[O-] is entered as i, 0.18

The list goes on:
KCNQ2 inh,KCNQ2 inh baseline,smiles
i,2.5,On1c(-c2ccc(Cl)cc2)nc2ccccc21
i,-0.05,Nc1ccc2c(c1)OCCOCCOCCOCCOCCO2
i,1.2,CCC1(C)Cc2c(sc3nc(SCC(=O)O)[nH]c(=O)c23)CO1 (stereo unspecified)
i,-0.93,COc1ccc(CNS(=O)(=O)c2cc(-c3cc(C)no3)ccc2C)cc1OC
i,1.2,COc1cc(/C=C/c2ccc3cccc(O)c3n2)cc(Br)c1OC
i,0.45,CC(C)(C)Oc1ccccc1Nc1nc(NCCO)nc(N2CCCC2)n1
i,2.2,O=C(C1CCCN(S(=O)(=O)c2ccccc2[N+](=O)[O-])C1)N1CCN(c2ccccc2)CC1 (stereo unspecified)
i,-0.28,Cn1cccc1C(=O)NC(=O)COC(=O)CNS(=O)(=O)c1ccc(Br)cc1
i,0.63,COC(=O)C1=C(Nc2ccc(C)cc2)C=C(C)C(C(=O)OC)C1c1ccc(F)cc1 (stereo unspecified)
i,-0.11,COc1ccc(C(=O)NC(=S)Nc2ccc(S(=O)(=O)Nc3cc(C)on3)cc2)cc1OC
i,2.2,CC(=O)C1=C(c2ccccc2)NC(=O)NC1c1cccs1 (stereo unspecified)
i,2.4,CCOc1cc(S(=O)(=O)NC2CCCCC2)ccc1F
i,-1.6,O=C(/C=C/c1ccccc1)c1ccc2c(c1)OCO2
i,0.2,Cc1ccc(S(=O)(=O)N2C=CC(C(F)(F)F)=NCC2)cc1
i,-0.78,O=C(CN1CCC(NC(=O)c2ccc(Br)cc2)CC1)NCc1cccs1
i,0.11,CCC(=O)N1CCN(c2nnc(-c3ccccc3)c3ccccc23)CC1
i,-0.08,COc1cccc(-n2nnc3c(=O)n(CC(=O)N4CCCc5ccccc54)cnc32)c1
i,-0.47,COCCN(CCOC)C(=O)c1cc2sc3ccccc3c2s1
i,1.2,O=C(NCCCCCNC(=O)c1cccnc1)c1cccnc1
i,-0.14,COc1cccc(-n2nnc3c(=O)n(CC(=O)Nc4cc(C)on4)cnc32)c1
i,-0.78,C=CCn1c(SCC(=O)NCCO)nc2sc(C)c(C)c2c1=O
i,-0.93,O=C(COC(=O)c1cccc(S(=O)(=O)N2CCOCC2)c1)Nc1ncc(C(F)(F)F)cc1Cl
i,-0.21,NNC(=O)c1cncn1-c1ccc(F)cc1
i,-0.17,O=C1C(=O)N(CCCN2CCOCC2)C(c2ccc(F)cc2)/C1=C(/O)c1ccccc1 (stereo unspecified)
i,0.09,O=C(NC(=O)c1ccc(Cl)cc1)Nc1ccc(-c2cnco2)cc1
i,0.66,O=C(NCc1cccnc1)NC(=O)c1ccc(Cl)cc1
i,-0.79,Nn1c(SCC(=O)N2CCCc3ccccc32)nnc1-c1ccccc1
i,0.72,CCOC(=O)c1sc(=S)n(-c2ccc(Cl)cc2)c1C
i,2.4,O=c1oc2ccccc2cc1-c1csc(Nc2ccc(O)cc2)n1
i,1.8,CCc1ccc(S(=O)(=O)Nc2ccc(O)c3c(=O)cc(-c4ccccc4Cl)oc23)cc1

Carrying on.
KCNQ2 inh,KCNQ2 inh baseline,smiles
i,0.09,Nc1c(S(=O)(=O)c2cc(Cl)ccc2Cl)c2nc3ccccc3nc2n1CCN1CCOCC1
i,0.02,C/C(=C\c1ccccc1)CN1CCN(c2cccc(Cl)c2)CC1
i,0.01,O=C(Nc1cccc(S(=O)(=O)NC2=NCCC2)c1)c1cc(-c2ccco2)nc2ccccc12
i,-0.05,Cn1c(=O)n(Cc2ccc(Br)cc2)c2ccccc21
i,0.17,Oc1ccc(Cl)cc1C(C#Cc1ccccc1)N1CCOCC1 (stereo unspecified)
i,1.9,CC1=C(C#N)C(=O)NC(C)(C)C1
i,0.01,COc1ccc(-c2nc(CS(=O)CC(=O)N3CCN(C)CC3)c(C)o2)cc1 (stereo unspecified)
i,1,CCN1CCN(c2ccc(S(=O)(=O)N3CCCCC3)cc2NC(=O)c2ccccc2)CC1
i,0.56,CCCOc1ccc(OCCn2nc(C(=O)O)c3ccccc3c2=O)cc1
i,-0.57,CCn1c(-c2cc(C3CC3)nc3ccccc23)n[nH]c1=S
i,-0.87,Cc1cc(S(=O)(=O)N2CCCOC2CNC(=O)C(=O)NCCc2ccco2)ccc1F (stereo unspecified)
i,-0.36,COC(=O)C1N2C(=O)[C@@H](NC(=O)COc3ccccc3)[C@H]2SC1(C)C (stereo partly specified)
i,0.07,Fc1cccc(Cn2cc(C(=S)N3CCCCC3)c3ccccc32)c1
i,0.95,O=C(/C=C/c1cn(-c2ccccc2)nc1-c1cccnc1)NCCN1CCOCC1
i,0.17,O=C(O)c1ccc(N2C(=O)c3[nH]nc(-c4ccccc4)c3C2c2ccccc2)cc1 (stereo unspecified)
i,0.06,COC(=O)c1nn(-c2ccccc2)c2nnc(Cc3ccc(C)cc3)c(=O)n12
i,-0.32,CCOc1ccc(-n2c(=O)c3sccc3n(CC(=O)NC3CCCCC3)c2=O)cc1
i,-0.2,CC1(C)CC(=O)C2=C(C1)Oc1ncn(Cc3ccco3)c(=N)c1C2c1ccccc1 (stereo unspecified)
i,0.62,S=C(NCc1ccco1)Nc1ccccn1
i,0.45,COc1ccc(NC(=O)COC(=O)CNS(=O)(=O)c2ccccc2)cc1OC
i,2.4,CCN(CC)S(=O)(=O)c1ccc(N2CCCC2)c(NS(=O)(=O)c2ccccc2)c1
i,1.2,Cn1c(=O)c2c(SCC(=O)N3CCCc4ccccc43)nc(CC(C)(C)C)nc2n(C)c1=O
i,1.6,COc1ccc(Cc2nnc(-c3ccc(F)cc3)o2)cc1OC
i,-1.8,CCCC[n+]1ccn(-c2nc3ccccc3nc2[N-]S(=O)(=O)c2ccc(Br)cc2)c1
i,1.1,Cc1nc(CS(=O)c2ccc(Cl)cc2)cc(N2CCOCC2)n1 (stereo unspecified)
i,-0.28,N#C/C(=C\c1ccc(Cl)s1)C(=O)N1CCN(c2ccccc2)CC1
i,-0.09,N/C(=N\OC(=O)Cc1ccccc1)c1ccccn1
i,0.14,O=S1(=O)CCO[C@H]2Cc3ccccc3[C@H]2N1Cc1cccc(C(F)(F)F)c1
i,1.6,COC(=O)c1ccc(CSc2nc3ccccc3s2)o1
i,3.3,O=C(Nc1nnc(-c2ccccc2)s1)c1cccc(S(=O)(=O)N2CCOCC2)c1

(more compounds)
KCNQ2 inh,KCNQ2 inh baseline,smiles
i,-2.8,O=C(OCC(=O)c1ccccc1Br)c1ccccn1
i,-1.1,COC(=O)c1ccc(NC(=S)N2CCN(C(=O)c3ccco3)CC2)cc1
i,-0.49,COc1ccc(N2CC(C(=O)Nc3c4c(nn3-c3ccc(OC)cc3)CS(=O)(=O)C4)CC2=O)cc1 (stereo unspecified)
i,-0.19,NC(=O)c1cccc(CC(=O)c2ccccc2)c1
i,-0.17,CN(C(=O)CN1C(=O)S/C(=C\c2ccccc2F)C1=O)C1CCS(=O)(=O)C1 (stereo unspecified)
i,0.41,Cc1[nH]c2ccccc2c1C(=O)CSc1ccccc1
i,-1.2,O=C(CN1CCC(c2nc3ccccc3s2)CC1)NCc1cccs1
i,1.5,Cc1cccn2c(=O)c3cc(C(=O)NCc4ccco4)c(=N)n(C(C)C)c3nc12
i,0.68,O=C(Nc1nn[nH]n1)c1ccc(S(=O)(=O)N2CCCCC2)cc1
i,-2.3,O=C(N/N=C/C(Br)=C\c1ccccc1)c1ccco1
-5.7*,-1*,CC1(C)CC(=O)C(C(C#Cc2ccccc2)C2=C(O)CC(C)(C)CC2=O)=C(O)C1
i,0.42,O=C(CN(C(=O)c1csnn1)c1ccc(F)cc1)NCc1ccc(F)cc1
i,1.6,Cc1cc(C(=O)COC(=O)c2ccc3c(c2)OCO3)c(C)n1Cc1cccs1
i,-0.03,COc1cccc(COC(=O)c2c(C)nn(-c3ccccc3)c2Cl)c1OC
i,-0.8,CCN1CCN(Cc2ccc(NC(=O)c3ccc(C)c(NC(=O)c4csc(-c5ccncc5)n4)c3)cc2C(F)(F)F)CC1
i,-1.6,Cc1ccc(C)c(Cn2nnc3c(=O)[nH]c(C4CCN(C(=O)c5cccs5)CC4)nc32)c1
i,-0.61,Cc1cc(C)nc(SCc2ccc(F)cc2)n1
i,-1.6,CN(CCC1CCCCO1)C(=O)CCc1nnc(C2CCCCC2)o1 (stereo unspecified)
i,0.75,CC(CCc1ccccc1)NC(=O)c1ccncc1 (stereo unspecified)
i,0.22,CCOc1ccc(N(CC)C(=O)COc2cc(=O)n(CC)c3ccccc23)cc1
i,-4.1,O=C(O)CCC(=O)NNc1nc2ccccc2nc1-c1ccccc1
i,-0.49,CCOCCCNC(=O)N1CCOCC1
i,0.16,COc1ccccc1S(=O)(=O)Cc1ccc(C(=O)NCCN(C)C)o1
i,0.32,COc1ccc(C(CC(=O)O)N2Cc3ccccc3C2=O)cc1OC (stereo unspecified)
i,0.85,CCc1ccc(-c2c(C)sc(NC(=O)C3CCC3)c2C#N)cc1
i,-0.05,COc1ccc(NC(=O)CCN2C(=O)C3C4C=CC(C4)C3C2=O)cc1 (stereo unspecified)
i,0.68,Cc1ccc(NC(=O)Cc2nnc(N)s2)cc1
i,-0.01,COc1ncccc1C(=O)N1CCC(n2nccc2NC(=O)CC(C)C)CC1
i,0.25,O=C(Cc1ccccc1)NC1CCS(=O)(=O)C1 (stereo unspecified)
i,-0.43,Brc1ccc2c(c1)OCCOCCOCCOCCOCCOCCO2

Compounds listed so far that have a nitro group on carbon:
KCNQ2 inh,KCNQ2 inh baseline,smiles
i,0.18,Cc1ccc(C(=O)COC(=O)c2ccncc2)cc1[N+](=O)[O-]
i,1,Cc1ccc(-c2ccc(/C=N/N3C(=O)C4C5C=CC(CC5)C4C3=O)o2)c([N+](=O)[O-])c1 (stereo unspecified)
i,-1.3,COc1ccc([N+](=O)[O-])cc1NC(=O)C1(c2ccc(OC)c(OC)c2)CCOCC1
i,2.2,O=C(C1CCCN(S(=O)(=O)c2ccccc2[N+](=O)[O-])C1)N1CCN(c2ccccc2)CC1 (stereo unspecified)

2 records picked at random from those above, as already listed:
KCNQ2 inh,KCNQ2 inh baseline,smiles
i,-1.6,O=C(/C=C/c1ccccc1)c1ccc2c(c1)OCO2
i,1.6,Nc1nnc(SCc2ccccc2)n1-c1ccccc1

These rows are one share of the data, so the mix of outcomes need not match the whole.
